Beta cell apopt – inhibitors of cytokine-induced beta cell apoptosis, primary screen, luminescence | AID 435005, 2010 | INS-1E cytokine-induced death, ATP luminescence, 48 h; percent of positive-control rescue, neutral wells zero | protection from apoptosis, % (no concentration beside the values) | hit rate 0.8% among 300,000;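 active = all replicates at 75% or more, or half of them and the mean; inconclusive = half reach 75% but not the mean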;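 also: 0% = cytokine-treated negative control wells and 100% = positive control rescue; higher means more ATP so stronger rescue from cytokine killing; wells of about 40 µL received 100 nL stock; the first replicate is given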
FGF22 binding – binders of human FGF22 protein, primary screen, FGF22 synaptogenesis inhibitor project, biophysical, thermal shift, single point. Fibroblast growth factor 22 (Homo sapiens), Q9HCT0. recombinant FGF22 thermal shift, SYPRO orange fluorescence; percent of sucrose octasulfate shift, DMSO zero. AID 651658, 2012. hit rate 1.5% among 340,000. calls only at 9.99 µM;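 active = melting point raised past a set limit in the mean and every replicate; inconclusive = no clear call; three in four hits are not shown here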
Target sequence (Q9HCT0 whole entry, looked up): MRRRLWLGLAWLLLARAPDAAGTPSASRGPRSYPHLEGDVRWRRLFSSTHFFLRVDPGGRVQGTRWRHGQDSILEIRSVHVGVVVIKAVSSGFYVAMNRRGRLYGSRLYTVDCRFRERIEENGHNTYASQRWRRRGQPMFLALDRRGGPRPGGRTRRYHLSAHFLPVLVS
MLL AF4-AF9 inh – inhibitors of AF4 peptide binding to AF9, primary screen, biochemical, AlphaScreen, biotin-AF4 peptide, FLAG-AF9, single point; Protein AF-9 (Homo sapiens), P42568; inhibition, % at 10 µM; hit rate 0.47% among 350,000; AID 651704, 2012;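 active = every replicate reaching a set inhibition limit, whatever the replicate mean, cut at about 25% in these data; inconclusive = mean inhibition reaches that limit but some replicates miss it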;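 also: 0% = plate neutral control median and 100% = total signal loss; the record names both 10 and 1 µM as test concentration; the first replicate is given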
Target sequence (P42568 whole entry, looked up): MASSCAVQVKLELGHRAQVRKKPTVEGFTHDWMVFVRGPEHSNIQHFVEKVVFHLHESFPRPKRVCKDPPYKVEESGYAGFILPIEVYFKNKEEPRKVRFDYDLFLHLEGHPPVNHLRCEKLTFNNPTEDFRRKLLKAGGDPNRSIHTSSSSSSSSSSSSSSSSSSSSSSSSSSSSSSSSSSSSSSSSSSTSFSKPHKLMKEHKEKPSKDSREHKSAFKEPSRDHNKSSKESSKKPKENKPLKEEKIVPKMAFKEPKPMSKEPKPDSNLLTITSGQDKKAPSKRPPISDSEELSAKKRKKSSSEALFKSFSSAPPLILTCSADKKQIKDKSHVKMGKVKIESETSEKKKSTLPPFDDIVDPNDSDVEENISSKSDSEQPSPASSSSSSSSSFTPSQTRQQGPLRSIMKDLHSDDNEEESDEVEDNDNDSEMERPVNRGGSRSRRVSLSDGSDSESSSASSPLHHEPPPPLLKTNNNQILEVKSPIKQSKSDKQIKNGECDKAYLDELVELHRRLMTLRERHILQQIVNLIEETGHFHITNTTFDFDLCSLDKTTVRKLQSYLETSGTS
Ecoli rRNA inh – reduced GFP signal of wild-type E. coli, primary screen, bacterial rRNA inhibitor project, GFP/RFP fluorescence, OD600, single point; E. coli WT GFP vs humanized-ribosome RFP mutants, 24 h; active compounds read low; DMSO median 0, no signal -100; GFP signal change (wild-type ribosome), % (test concentration not listed); hit rate 1.6% among 350,000;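 active = significant combined selectivity score with lowered wild-type GFP, culture density cut under 30%, mutant RFP and density less affected; inactive = any of these conditions unmet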; also: one replicate is shown; some compounds called inactive have numbers as strong as hits
RanGTP-Impb inh – inhibitors of RanGTP-importin-beta interaction, primary screen, biochemical, FRET, CFP-Ran, YFP-importin-beta, homogeneous; inhibition, % (concentration not given with the values); Ran GTPase (GTP-bound) - importin-beta complex; AID 2216, 2009; cell-free CFP-Ran/YFP-importin-beta FRET ratio; hit rate 1.1% among 300,000;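 active = most replicates above 15%; inconclusive = exactly half above 15%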;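 also: 0% = DMSO wells and 100% = Ran loaded with GDP instead of GTP; wells of about 40 µL received 100 nL stock; the first replicate is given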
ALR inh – inhibitors of human ALR sulfhydryl oxidase, primary screen, biochemical, H2O2 detection, HRP-luminol luminescence, single point; FAD-linked sulfhydryl oxidase ALR (Homo sapiens), P55789; purified ALR, DTT oxidation; inhibition, % (concentration not given with the values); hit rate 3.8% among 290,000; AID 485317, 2010;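 active = mean and each replicate at 75% or more; inconclusive = only one of the two met; inactive = neither met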;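 also: stock transfer was 7.5 nL into about 7.5 µL; 0% = neutral wells and 100% = wells with inactivated enzyme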
Target sequence (P55789 whole entry, looked up): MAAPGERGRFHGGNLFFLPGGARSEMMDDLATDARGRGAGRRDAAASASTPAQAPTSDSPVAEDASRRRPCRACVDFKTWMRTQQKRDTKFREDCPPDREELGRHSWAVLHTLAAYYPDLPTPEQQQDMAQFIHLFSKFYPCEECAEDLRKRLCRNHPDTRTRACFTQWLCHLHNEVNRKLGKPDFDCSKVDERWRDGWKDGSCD
Calb FLC – C. albicans growth inhibition with fluconazole, primary screen, CaCi-2 strain, Alamar Blue fluorescence | C. albicans CaCi-2 (fluconazole-resistant clinical isolate) + fluconazole, 48 h | growth inhibition, % (test concentration not listed) | hit rate 0.57% among 300,000 | AID 1979, 2009;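 active = most replicates above 75%; inconclusive = exactly half above 75%; inactive = most below 75%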;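 also: all wells also contain fluconazole at 8 µg/ml as a sub-toxic cotreatment; 0% = median of DMSO wells and 100% = median of geldanamycin control wells; wells of about 8 µL received 7.5 nL stock; the first replicate is given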
T cruzi repl – inhibitors of intracellular T. cruzi growth, primary screen, luminescence, NIH3T3 host cells; inhibition, % (test concentration not listed); T. cruzi beta-gal in NIH3T3, 90 h; hit rate 1.4% among 300,000;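 active = mean inhibition across valid replicates above about 55%, limit read from the data; inconclusive = mean below that limit but half or more replicates reach it; inactive = mean below it, under half of replicates reach it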;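 also: signal also drops with host cell toxicity which is not excluded here; 0% = plate median of DMSO wells and 100% = zero luminescence signal; higher percent means less beta-gal luminescence so fewer parasites; stock transfer was 50 nL into about 50 µL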
Ecoli rRNA inh OD600 – further read-out of Ecoli rRNA inh, marked with its call; OD600 change, %; measured here: OD600 growth;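 optical density of the mix in the first replicate; 0 = DMSO median and -100 = no signal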
Ecoli rRNA inh RFP – recorded beside Ecoli rRNA inh, whose call it bears; RFP signal change, %; measured here: RFP humanized mutant strains;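 first replicate; 0 = DMSO median and -100 = no signal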
* hit, by the source's call; i = inactive; ? = inconclusive; / = not tested or not shown; & = joins results of further samples.

SMILES	Beta cell apopt	FGF22 binding	MLL AF4-AF9 inh	Ecoli rRNA inh	Ecoli rRNA inh OD600	Ecoli rRNA inh RFP	RanGTP-Impb inh	ALR inh	Calb FLC	T cruzi repl
O=C(Nc1ccc(Cl)cc1)c1cccnc1N1CCCCC1	-2	/	/	/	/	/	0.8	/	-3	12
COc1ccc(NC(=O)CC(C)C)c([N+](=O)[O-])c1	5	i	-19	-5	0	-5.3	-2.0	-3	-3	-15
COc1ccc(S(=O)(=O)n2nc(OCc3cccs3)cc2N)cc1	4	i	-2.1	-22	-24	-8.1	-1.7	3	-3	-26
O=C(NCCCN1CCOCC1)c1nn(-c2ccccc2)c(=O)c2ccccc12	-4	i	-12	4	12	-0.9	2.7	-3	3	-15
CC(=O)N1C(C)(C)CC(=NOC(=O)c2ccc(C)cc2)CC1(C)C	-4	i	1.3	1	6	-0.6	2.7	/	32	-1
N=C(N)c1ccccc1	-2&0	i	-4.8&0.3	/	/	/	-1.3&-1.4	-9	/	-9&-3
Oc1ccccc1-n1nc2ccc3nonc3c2n1	4	i	7.7	-6	1	-5.9	-1.0	2	-9	-10
O=C(Nc1ccc(S(=O)(=O)NC2=NCCCCC2)cc1)c1cc(S(=O)(=O)N2CCOCC2)ccc1F	1	i	-0.4	4	4	0.0	5.9	-2	1	-8
COc1ccc(-c2nc(CN3CCC(C(=O)NC4CCN(Cc5ccccc5)CC4)CC3)c(C)o2)cc1OC	10	i	4.6	12	18	-0.5	1.4	43	-28	18
COc1ccc(C(=O)Nc2cccnc2Cl)cc1OC	-2	i	-31	5	6	-0.1	-2.8	-4	-5	-10
Cc1ccc2nc(C)cc(N/N=C/c3ccc(F)cc3)c2c1	-2	i	4.9	2	8	-1.1	4.1	68	30	-3
Cc1nn(-c2ccccc2)c(Cl)c1C(=O)Nc1c(C)n(C)n(-c2ccccc2)c1=O	-3	/	/	-1	7	1.1	?	5	1	2
O=C(c1ccc(Cl)cc1Cl)N1CCSCC1	-6	i	-1.8	-7	0	-2.9	1.6	-3	-3	-9
CCCCN(C(=O)C1CC(=O)N(Cc2ccc(C)cc2)C1)c1c(N)n(CCCC)c(=O)[nH]c1=O (stereo not drawn)	-1	i	-4.0	9	11	-2.5	6.3	-4	2	-9
CC(C)(CSc1ncccn1)NS(=O)(=O)c1ccccc1	/	i	-4.1	2	1	-8.4	-6.2	1	1	8
Cc1cc([N+](=O)[O-])ccc1NC(=O)c1ccco1	0	i	-3.6	13	19	-0.2	0.4	-4	-2	8
COc1cccc(C(=O)C(C#N)=C(SC)SC)c1	36	i	-5.2	1	6	3.8	8.9	/	-2	-18
CCc1cc(C=C(Cl)Cl)oc(=O)c1C	-4	i	-0.3	3	6	2.6	-1.5	10	-5	-21
CC(C)OC(=O)C1C2C=CC3(CN(Cc4cccs4)C(=O)C13)O2 (stereo not drawn)	-4	/	/	/	/	/	-4.7	3	10	-21
COc1cc(OC)c(OC)cc1CN1CCC(O)CC1	-7	i	-4.4	5	11	-3.6	2.3	1	-1	13
CC(=O)c1sc(NC(=O)CS(=O)(=O)c2ccc(F)cc2)nc1C	-2	i	-0.7	6	3	-0.5	4.0	-1	6	12
COc1ccc(S(=O)(=O)N2CCCOC2CNC(=O)C(=O)NCc2ccco2)cc1 (stereo not drawn)	-8	i	-1.9	6	-3	1.4	3.4	1	-2	-1
COc1ccc(-n2nc(C(=O)NCC(=O)NC(C)C)c3ccccc3c2=O)cc1OC	-2	i	-0.3	6	5	-0.8	2.6	/	-4	-9
Cc1ccc2cc(CCNC(=O)c3cccc([N+](=O)[O-])c3)c(=O)[nH]c2c1C	-5	/	/	/	/	/	3.4	-4	?	20
C#CCOC(=O)c1ccccc1C(=O)O	-3	/	/	/	/	/	-0.3	-4	4	-10
O=C(Nc1ccccn1)c1ccc(Cl)c(S(=O)(=O)N2CCCCCC2)c1	-10	i	1.3	-31	-31	-6.4	3.3	/	-1	18
CCc1cc(C(=O)N2CCN(S(=O)(=O)c3cc(C)ccc3C)CC2)sc1C	-2	i	0.9	3	-21	7.4	/	-5	/	/
CC(C)(C)NC(=O)C(c1cccs1)N(C(=O)c1csnn1)c1cccc(F)c1 (stereo not drawn)	-4	i	-2.5	10	13	6.2	1.4	-14	-10	4
CCCCN(C)C(=O)c1cn(CC)c2ccc(S(=O)(=O)N(C)C)cc2c1=O	-1	i	-7.1	11	24	-2.6	1.7	-21	-4	5
O=[N+]([O-])c1cc(-c2ccc(/C=N\n3cnnc3)o2)cc([N+](=O)[O-])c1	0	i	1.7	1	14	-4.9	2.3	-9	-4	34
Clc1ncc(CN2CCN(c3ccccc3)CC2)s1	-4	i	1.2	4	-7	-3.1	2.9	65	-20	17
COc1ccc(C(=O)NCc2nnc(SCC(=O)Nc3ccccc3F)o2)cc1	-15	i	0.2	7	8	0.6	1.2	21	-21	-16
COCC(=O)Nc1ccc(S(=O)(=O)N2CCCC2)cc1	1	i	-1.0	-1	3	2.0	1.4	-5	/	-19
C/C(=N\Nc1ccc(Cl)c(C(=O)O)c1)c1ccc(N2CCOCC2)cc1	-4	i	-1.2	6	5	-1.9	0.8	/	11	-9
COc1ccc(S(=O)(=O)Nc2c(C)ccc3nsnc23)cc1OC	-17	/	/	/	/	/	-1.6	/	-7	-1
O=C(NNC(=O)c1ccc(Br)o1)c1csc(N2CCOCC2)n1	-4	i	-1.9	-5	-3	-5.9	/	3	/	/
Nc1nccnc1C(=O)OCc1nc2sc3c(c2c(=O)[nH]1)CCCC3	0	i	-32	-4	-10	-2.7	0.7	-2	3	-10
Cc1cc(C)n2nc(C(=O)Nc3ccc4c(c3)OCO4)nc2n1	2	/	/	/	/	/	-16	-31	-12	1
Cc1ccc2occ(C(c3nnnn3C3CCCC3)N3CCN(C(=O)c4ccco4)CC3)c(=O)c2c1 (stereo not drawn)	6	i	2.5	-6	-18	8.7	2.5	-2	35	5
COc1ccc(OCC(=O)NNC(=O)C(=O)Nc2ccc(C)cc2)cc1	-7	i	-1.5	/	/	/	0.2	-8	-7	-15
Cc1ccc(NC(=O)CN(C)C(=O)COc2cccc3cccnc23)cc1	/	/	/	/	/	/	-1.4	-25	3	3
CC(=O)c1ccc(OCC(=O)N2CCCC(Nc3ccc(C)c(C)c3)C2)cc1 (stereo not drawn)	3	i	3.0	-6	-9	4.2	-1.5	85*	-11	5
CCOc1cc(C(=O)NC(=S)Nn2cnnc2)cc(OCC)c1OCC	4	i	-2.4	8	9	1.3	-1.7	34	-10	-9
O=C(/C=C/c1cc(Br)ccc1F)OCC(=O)N1CCOCC1	-6	i	1.2	1	-3	-1.9	/	-6	/	/
COc1cc(C(=O)OC(C)CN2C(C)CCCC2C)cc(OC)c1OC (stereo not drawn)	/	i	-8.7	23	17	2.3	0.6	-2	17	-4

Compound profiles (already shown). Values in the order: Beta cell apopt | FGF22 binding | MLL AF4-AF9 inh | Ecoli rRNA inh | Ecoli rRNA inh OD600 | Ecoli rRNA inh RFP | RanGTP-Impb inh | ALR inh | Calb FLC | T cruzi repl
COc1ccc(C(=O)NCc2nnc(SCC(=O)Nc3ccccc3F)o2)cc1 is entered as -15 | i | 0.2 | 7 | 8 | 0.6 | 1.2 | 21 | -21 | -16
CC(=O)c1ccc(OCC(=O)N2CCCC(Nc3ccc(C)c(C)c3)C2)cc1 (stereo not drawn) is entered as 3 | i | 3.0 | -6 | -9 | 4.2 | -1.5 | 85* | -11 | 5
C/C(=N\Nc1ccc(Cl)c(C(=O)O)c1)c1ccc(N2CCOCC2)cc1 is entered as -4 | i | -1.2 | 6 | 5 | -1.9 | 0.8 | / | 11 | -9
COc1cc(C(=O)OC(C)CN2C(C)CCCC2C)cc(OC)c1OC (stereo not drawn) is entered as / | i | -8.7 | 23 | 17 | 2.3 | 0.6 | -2 | 17 | -4

The main list resumes with the 4 entries that preceded the break.
SMILES	Beta cell apopt	FGF22 binding	MLL AF4-AF9 inh	Ecoli rRNA inh	Ecoli rRNA inh OD600	Ecoli rRNA inh RFP	RanGTP-Impb inh	ALR inh	Calb FLC	T cruzi repl
CC(=O)c1ccc(OCC(=O)N2CCCC(Nc3ccc(C)c(C)c3)C2)cc1 (stereo not drawn)	3	i	3.0	-6	-9	4.2	-1.5	85*	-11	5
CCOc1cc(C(=O)NC(=S)Nn2cnnc2)cc(OCC)c1OCC	4	i	-2.4	8	9	1.3	-1.7	34	-10	-9
O=C(/C=C/c1cc(Br)ccc1F)OCC(=O)N1CCOCC1	-6	i	1.2	1	-3	-1.9	/	-6	/	/
COc1cc(C(=O)OC(C)CN2C(C)CCCC2C)cc(OC)c1OC (stereo not drawn)	/	i	-8.7	23	17	2.3	0.6	-2	17	-4
Cc1cccc(C(=O)OCc2cnc(Cl)s2)c1	4	/	/	/	/	/	-3.4	4	-11	-10
COc1ccc(C)cc1S(=O)(=O)Nc1ccncc1	6	i	-5.2	15	19	2.5	14*	-3	-8	-15
CCOC(=O)C1CCCN(c2nc3ccccc3nc2C(C#N)C(=O)OC(C)COC)C1 (stereo not drawn)	-3	i	20	-13	-7	9.3	?	-1	-2	7
CCOc1ccc(/C=C\C(C)=N\O)cc1	-6	i	-44	6	9	-1.8	-1.5	21	-5	5
O=C(CSc1nc2ncc(Cl)cc2[nH]1)c1ccc2c(c1)OCO2	-4	i	2.9	8	-1	12	2.7	-2	3	-5
CC(C)Nc1nc(NC(C)C)nc(Nn2cnnc2)n1	/	i	-1.6	25	17	0.7	-2.0	-6	-6	-4
CC(C)C(NC(=O)c1ccc(Cl)cc1Cl)C(=O)N1CCC1 (stereo not drawn)	-6	i	8.0	7	13	4.6	/	1	/	/
Cc1[nH]n(-c2ccccc2)c(=O)c1CCO	2	/	-1.6	19	23	1.3	-2.9	5	-8	7
Cc1cc(NS(=O)(=O)c2ccc(NC(=O)COc3ccc(C#N)cc3)cc2)nc(C)n1	-4	i	-3.0	2	-3	1.9	/	30	/	/
Cc1cc(OC(F)F)ccc1NC(=S)NC1CCCC1	1	i	-14	-1	-16	0.3	2.9	45	-9	-21
NS(=O)(=O)c1ccc(CCNC(=O)CN2C(=O)c3ccccc3S2(=O)=O)cc1	-2	i	-0.1	5	13	-1.7	4.6	20	2	-3

Only part of the results is shown; count on the stated rates, not on these rows.
